# Mtb betalactam = beta-lactam sensitization of Mtb H37Rv, H37Rv | 330,000 compounds, 0.27% hits | inhibition, % at 25 µM | M. tuberculosis H37Rv growth with meropenem, percent inhibition; hits of this screen are not shown here;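 active = about 74% or more and at least 40 points above the plate without the antibiotic, then above 30% in a dose series; inconclusive = first-round hits that could not be retested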;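 also: growth measured after seven days incubation then overnight dye step; 0% = bacteria only wells and 100% = bacteria with antibiotic; twin plates without the antibiotic show which effects depend on it; some results filed as inactive read as strong as hits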
# Mtb growth = M. tuberculosis H37Rv growth inhibitors, H37Rv strain (AID 1626); M. tuberculosis H37Rv growth inhibition; higher % means a stronger effect; inhibition, % at 10 µM; hits with a dose series show IC50 in µM; 220,000 compounds, 0.95% hits;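 active = confirmed in a dose series; inconclusive = inhibition above 80% but not taken into the dose series; inactive = below 80% or under 30% at every dose of the series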;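 also: bacteria incubated seven days before Alamar blue readout; 0% = bacteria only wells and 100% = bacteria with antibiotic wells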
# YopH PTP inh = YopH tyrosine phosphatase inhibitors, primary screen, biochemical, fluorescence Ex485/Em525. AID 898, 2007. 140,000 compounds, 0.16% hits. inhibition, %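 (about 10 µM by stock and volumes)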;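 active = inhibition of 50% or more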;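 also: controls were vehicle for no effect and minimum signal wells for full effect; inactives centre near -20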
# RecA splice inh = Mtb RecA intein splicing inhibitors, primary screen, biochemical, fluorescence, HTS | Protein RecA (Mycobacterium tuberculosis (strain ATCC 25618 / H37Rv)), P9WHJ3 | cell-free RecA intein splicing | inhibition, %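 (about 9 µM by stock and volumes)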 | 290,000 compounds, 0.75% hits | AID 2221, 2009; in the data active = inhibition above about 30%; inconclusive = no clear call, values can overlap the other calls;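 also: 0% = vehicle wells and 100% = reference inhibitor control wells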
# Target sequence (P9WHJ3 whole entry, looked up, canonical isoform): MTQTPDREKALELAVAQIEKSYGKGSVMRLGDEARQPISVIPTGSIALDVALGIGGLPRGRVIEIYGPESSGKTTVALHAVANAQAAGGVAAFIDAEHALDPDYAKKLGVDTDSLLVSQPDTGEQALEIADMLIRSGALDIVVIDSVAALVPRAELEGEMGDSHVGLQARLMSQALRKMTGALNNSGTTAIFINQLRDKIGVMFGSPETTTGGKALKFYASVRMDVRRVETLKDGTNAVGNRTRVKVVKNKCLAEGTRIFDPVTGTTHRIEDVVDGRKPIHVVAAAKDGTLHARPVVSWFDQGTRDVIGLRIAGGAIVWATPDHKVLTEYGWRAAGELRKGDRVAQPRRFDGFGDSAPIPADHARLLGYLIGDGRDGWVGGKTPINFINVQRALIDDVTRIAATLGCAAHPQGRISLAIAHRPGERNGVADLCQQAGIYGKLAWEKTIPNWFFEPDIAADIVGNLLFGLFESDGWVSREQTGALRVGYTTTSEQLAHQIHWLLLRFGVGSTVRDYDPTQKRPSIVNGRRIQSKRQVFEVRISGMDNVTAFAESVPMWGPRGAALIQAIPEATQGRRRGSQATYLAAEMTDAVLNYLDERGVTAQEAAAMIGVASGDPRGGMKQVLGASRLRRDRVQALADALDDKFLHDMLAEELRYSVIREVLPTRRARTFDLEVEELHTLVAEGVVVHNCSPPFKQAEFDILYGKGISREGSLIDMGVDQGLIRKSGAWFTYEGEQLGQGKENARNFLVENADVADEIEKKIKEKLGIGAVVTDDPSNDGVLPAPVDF
# Arbovirus anti = antivirals against arbovirus infection, primary screen, cell-based, full library, 10K replicate subset; inhibition, % at 10 µM; 200,000 compounds, 0.37% hits; arbovirus infection cell-based antiviral screen;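 active = inhibition from about 30%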;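 also: bluetongue infection of BSR cells; cell survival read as ATP light after 72 h; 0% = infected wells without compound and 100% = uninfected wells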
# Arbovirus anti repeat = also measured in Arbovirus anti; calls as there; inhibition, %; measured here: 10K subset replicate screen; many hits read low in the repeat;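 first of two repeat runs on a subset; 0% = infected and 100% = uninfected wells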
# * hit, by the source's call; ? = inconclusive; · = not tested or not shown. A portion of the library. The share of hits here may be higher or lower than overall.
SMILES,Mtb betalactam,Mtb growth,YopH PTP inh,RecA splice inh,Arbovirus anti,others
Cc1ccc(OCC(=O)N(Cc2ccco2)C2CCS(=O)(=O)C2)cc1 (stereo not given),-14,·,·,-0.6,·,
COc1ccc(-c2nc3c(s2)CCc2onc(-c4ccc(Br)cc4)c2-3)cc1,0,-17%,·,-1.8,·,
O=C(CCC(=O)Nc1ccc(F)cc1)N/N=C/c1ccncc1,-4,-1%,·,-3.4,2,
CCc1nnc(NC(=O)C2(C)COC(c3ccccc3)OC2)s1 (stereo not given),1,4%,·,-2.9,-4,
COc1cccc(-n2c(Cc3cc(=O)[nH]c(=O)[nH]3)nnc2SCC(=O)N2CCCCCC2)c1,11,0%,-34,·,1,Arbovirus anti repeat=-2
CC(=O)Nc1ccc2cc3ccc(NC(C)=O)cc3nc2c1,5,-5%,·,-31,·,
Nc1nnnn1/N=C/c1cc([N+](=O)[O-])ccc1O,0,-2%,·,3.1,·,
c1ccc(Cc2ccc(OCCn3cncn3)cc2)cc1,-3,1%,8,-2.6,-3,
O=C(Cc1cccs1)NCc1cccc(Cl)c1,-1,·,·,-0.4,·,
Cc1ccc(C)c(OCC(=O)Nc2ccc(S(=O)(=O)N3CCN(C)CC3)cc2)c1,-9,-1%,-29,-3.4,4,
Cc1ccc(-c2csc3ncnc(-n4nnc5ccccc54)c23)cc1,-1,8%,-4,2.3,8,
COc1cc2c(cc1OC)-c1n[nH]c(=S)n1C(C)(C)C2,4,6%,·,-2.7,4,
CCOc1ccccc1C(=O)N1CCN(c2cccc(Cl)c2)CC1,-5,-1%,35,2.1,-18,
CCC(=O)Nc1ccc2c(c1)ncn2-c1ccc(C)cc1,-6,7%,·,1.2,-2,
CC(=O)c1cn(CC(=O)NCc2ccc3c(c2)OCO3)c2ccccc12,7,-3%,-7,-1.7,-3,
COc1ccc(C2=NS(=O)(=O)N(C)C(C(=O)NC3CCCCC3)=C2)cc1OC,2,·,·,-12,·,
Cc1ccc2c(c1)N(CC(=O)NCCCN1CCCC1)C(=O)CO2,-7,·,·,-1.0,·,
CCOC(=O)c1c(C)[nH]c(C(=O)Nc2ccc(NC(C)=O)cc2)c1C,-2,7%,·,-4.5,0,
C#CCOCCOCCOCCNc1nc(N2CCN(C(=O)Cn3cc(CCCCN)nn3)CC2)nc(N2CCN(C(=O)[C@H](C)n3cc(CCCN=C(N)N)nn3)CC2)n1,·,-10%,-15,4.1,-4,
Cc1ccc(N=C2NC(=O)CS2)cc1C,1,·,·,0.7,·,
COc1cc(C(=O)NC(=S)NC(C)C)cc(OC)c1OC,8,-8%,-25,-0.4,-1,
O=c1[nH]c(C2CCN(S(=O)(=O)c3ccc(F)cc3)CC2)nc2c1nnn2Cc1ccc2c(c1)OCCO2,79,·,·,2.7,·,
Cn1nnnc1-c1cc(Cl)cc(Cl)c1,-7,6%,·,-0.9,-2,
CCOc1ccc(OCCOC(=O)C2CCN(S(=O)(=O)c3ccc(C)c(C)c3)CC2)cc1,-5,·,·,-1.2,·,
CCOC(=O)c1cnc2c(OC)cccc2c1N1CC(C)CC(C)C1 (stereo not given),12,·,·,8.3,·,
C=CC[C@]12CC=CC(=O)[C@@]1(O)O[C@H](c1ccc(OC)c(OC)c1)[C@H]2C,7,-5%,·,22,·,
CC1CC(C)CN(CCCNC(=O)c2ccc(CNS(=O)(=O)c3ccc(F)cc3)cc2)C1 (stereo not given),-1,·,·,1.9,·,
O=C(c1cnn(-c2ccc(Cl)cc2)c1)c1ccccc1O,3,8%,·,-1.0,7,
O=C(Cn1cnc([N+](=O)[O-])n1)NCc1ccccc1,69,·,-23,7.5,0,
CC(=O)N/C(=C\c1ccccc1)C(=O)NCC(=O)O,·,-5%,-25,·,-10,
CC(C)C(C(=O)O)N1CCS(=O)(=O)CC1 (stereo not given),-6,2%,·,0.0,3,
Cc1ccc(NC(=O)NC(=O)CSc2n[nH]c(N)n2)c(C)c1,-1,1%,·,·,4,
C=CCOc1ccc(/C=C\c2nc(O)c([N+](=O)[O-])c(=O)[nH]2)cc1OCC,3,·,·,0.0,·,
CCCCCC(=O)Nc1ccc(C(=O)COC(=O)CN2C(=O)NC3(CCCC3)C2=O)cc1,1,·,·,0.9,·,
Cc1ccc(CN/C=C/C(=O)c2ccc(Br)cc2)cc1,-8,5%,-97,-1.2,3,
COCCCNc1nc2nonc2nc1N1C[C@H]2CC[C@H]1C2,1,6%,·,-3.0,2,
COc1cc(/C=N\NC(=O)c2ccc(Cl)cc2)ccc1Oc1ccc([N+](=O)[O-])cn1,-6,-5%,·,-1.7,·,
CCn1c(/C=C/Nc2ccccc2)[n+](CC)c2ccc(C(=O)OCC(F)(F)F)cc21,-11,2%,-4,-1.3,-1,
O=C(Nc1ccc(N2CCCC2)cc1)c1cc(Br)ccc1Cl,45,·,·,2.1,·,
CC(C)Sc1nnc(Nc2ccccc2)s1,-5,-2%,-36,0.4,7,
CCOC(=O)C1(Cc2ccc(Cl)cc2)CCN(C(C)Cc2ccc(O)c(OC)c2)CC1 (stereo not given),4,·,·,-3.1,·,
C/C(=N\NC(=O)CNC(=O)c1ccccc1F)c1ccco1,0,·,·,-1.6,·,
CCOC(=O)C1(C)NC(c2ccccc2F)C2C(=O)N(c3cccc(C(C)=O)c3)C(=O)C21 (stereo not given),2,-8%,-40,1.2,-7,
COc1ccc(NC(=O)CNc2ccc(C#N)cc2)cc1,-10,-5%,·,·,4,
NC(=S)NNc1ccc(Cl)c(Cl)c1,99,?,·,1.1,·,
CCN(CCNC(=O)C1CCN(c2nnc(-n3cccc3)s2)CC1)c1ccccc1,3,1%,-2,-0.5,-8,Arbovirus anti repeat=-6
O=[N+]([O-])c1ccc(N2CCN(Cc3ccccc3)CC2)s1,69,·,·,0.4,·,
Cc1ccccc1C(=O)NNC(=O)C(=O)Nc1cccc(Cl)c1C,93,?,-3,7.3,-16,
CN(CCOc1ccc(Cl)cc1)C(=O)c1ccc(S(=O)(=O)N2CCOCC2)cc1,-6,1%,·,4.6,7,
COc1ccc(CNCc2ccc(OC)c3ccccc23)cc1,6,·,·,0.7,·,
O=C(Nc1ccc(Cl)cc1)N1CCOCC1,-2,·,·,2.3,·,
COc1cccc(NC(=O)CN(C)C(=O)Cn2c(=O)oc3ccccc32)c1,-10,·,·,3.4,·,
COc1ccc(C(=O)NCc2ccc3c(c2)OCO3)cc1,-6,-5%,·,-0.7,-5,
COc1ccc(S(=O)(=O)N2CCOCC2)cc1NC(=O)c1ccc(-n2nc(C)cc2C)cc1,-11,3%,·,-0.7,·,
O=C1CC(N2CCN(c3ncccn3)CC2)C(=O)N1CCc1ccccc1 (stereo not given),-2,-5%,·,-1.7,-2,
O=C1C2C3C=CC(CC3)C2C(=O)N1/N=C/c1ccco1 (stereo not given),-6,1%,·,-1.1,6,
O=C(NCCOc1ccccc1)c1cncc(Br)c1,-18,-8%,4,5.3,1,
Clc1ccc(-c2csc(-c3cccnc3)n2)s1,86,25%,·,5.0,·,
O=S(=O)(Nc1cccc2[nH]ncc12)c1cccs1,3,12%,·,-1.3,0,
O=c1c(N2CCOCC2)nsn1Cc1ccccc1,-11,·,7,-2.3,6,

# Later entries:
SMILES,Mtb betalactam,Mtb growth,YopH PTP inh,RecA splice inh,Arbovirus anti,others
CN(CCC#N)C(=S)Nc1ccc(Oc2ccccc2)cc1,6,1%,-35,0.1,1,
Cc1ccc(/C=C2\C(=N)N3N=C(CC(=O)N4CCCCC4)SC3=NC2=O)cc1,2,·,·,4.9,·,
CC(C)c1ccc(C(O)c2cnc(C(C)C)n2C)cc1 (stereo not given),-1,6%,-26,1.6,13,Arbovirus anti repeat=5
CCC(Oc1cc(Cl)ccc1Cl)C(=O)N1CCC2(CC1)OCCO2 (stereo not given),-16,·,·,0.4,·,
Cc1ccc(-c2nn(-c3ccccc3)cc2/C=C/C(=O)OCC(=O)NC2CC2)o1,24,7%,·,1.2,1,
Cc1ccc(C2=NNC(c3ccc(Cl)cc3)=Nc3ccccc32)o1,1,12%,-23,-0.9,2,
Cc1cccc(NS(=O)(=O)c2ccc(C(=O)NCC(C)(C)N3CCOCC3)cc2)c1C,7,·,·,1.3,·,
Cc1cccc(NC(=O)C2C3CCCCC32)c1 (stereo not given),-1,·,·,-1.7,·,
COC(=O)C1=C(C)N(Cc2ccc3c(c2)OCO3)C(=O)C1,6,3%,·,-0.1,-8,
Cc1cc2cc(CCNC(=O)c3c(-c4ccccc4Cl)noc3C)c(=O)[nH]c2cc1C,·,7%,-17,-1.2,-5,Arbovirus anti repeat=1
Cn1cc(/C=C2\SC(=S)N(NC(=O)c3ccccc3)C2=O)c2ccccc21,2,16%,-11,-2.7,-11,
CC(C)(C)C(=O)Cn1nnc(-c2ccc(C(F)(F)F)cc2)n1,2,-15%,·,-2.2,·,
CCCCCCCCCCS(=O)(=O)N/N=C/c1ccc(O)cc1,4,-1%,-35,9.0,-9,
Cc1onc(-c2ccccc2)c1-c1nnc(-c2ccccc2C(F)(F)F)o1,69,-2%,·,13,·,
O=C(c1cc2c(cc1Br)OCCCO2)N1CCCCC1,-4,-2%,-16,-1.1,8,
N#C/C(=C\c1ccc(F)c(Cl)c1)S(=O)(=O)c1ccccn1,1,-11%,·,1.7,·,
NS(=O)(=O)c1ccc(NC(=O)CSc2nnc(Cc3cccs3)n2-c2ccccc2)cc1,-3,2%,0,-3.2,3,
CS(=O)(=O)N1CC(C(=O)O)Oc2ccc(CC(=O)O)cc21 (stereo not given),-1,3%,·,-2.5,8,
CN1CCN(CCCNC(=O)c2cn(C3CCCCC3)c(=O)c3c2c2ccccc2n3C)CC1,-2,8%,-25,2.0,-8,
CN(C)C(=O)COC(=O)c1ccccc1NC(=O)c1ccco1,-2,-4%,·,-0.8,23,
Cc1ccccc1CC(=O)N1CCN(C(=O)C2CCCO2)CC1 (stereo not given),-2,·,·,-0.1,·,
COc1ccccc1NC(=O)CCC(=O)OCc1ccc([N+](=O)[O-])cc1,8,6%,·,-0.3,3,
COc1ccccc1-c1nc2c3ccccc3nc(=S)n2[nH]1,99,·,·,0.4,·,
CC(C)OC(=O)c1cc2ccccc2oc1=O,2,1%,-54,-1.3,2,
Cc1nn(C)c(NC(=O)c2ccccc2Cl)c1Br,42,·,·,0.2,·,
CN(C(=O)COC(=O)c1ccccc1Nc1ccccc1)C1CCS(=O)(=O)C1 (stereo not given),-12,6%,2,-0.9,2,
CC(C)c1ccccc1OCC(=O)Nc1cc(S(=O)(=O)N2CCOCC2)ccc1N1CCCC1,-3,·,·,16,·,
CCOC(=O)CCN(Cc1sccc1C)S(=O)(=O)c1ccc(F)cc1,2,50%,-7,-3.7,1,
Cc1[nH][nH]c(=O)c1/C=N/N1CCOCC1,0,2%,·,3.3,-1,
Cc1ccc2nc(C)cc(N/N=C/c3ccccc3O)c2c1,3,·,·,-2.4,·,
Cn1nc(-c2ccccc2)cc1NS(=O)(=O)c1ccccc1,6,-9%,·,2.4,·,
O=C(N/N=C/c1coc2ccccc2c1=O)c1cn(-c2ccccc2)nc1-c1ccccc1,7,1%,-14,-1.2,19,
CC(=O)Nc1c(O)[nH]c2ccccc12,-1,-9%,-6,-1.1,-4,
CC(=O)Nc1ccc(/C=N/NC(=O)c2cc3ccccc3nc2C)cc1,6,-5%,-12,-4.6,-4,
OCCN(Cc1ccccc1)CC1CC=CCC1 (stereo not given),7,-10%,-42,0.0,4,
CCCCCC(O)c1cccc(OCc2ccc3ccccc3n2)c1 (stereo not given),74,12%,-17,8.8,-44,
COC(=O)c1ccc(NC(=S)NC(=O)c2c(-c3ccccc3)noc2C)cc1,-8,-5%,·,-1.6,·,
COc1ccc(-c2nnnn2C)cc1S(=O)(=O)Nc1ccc(C)cc1C,-5,·,·,-0.9,·,
